# GIRK2 activ – activators of human GIRK2 potassium channels. AID 1259325, 2017. 63,000 tested, 0.05% active. calls only for hits at 25 µM. G protein-activated inward rectifier potassium channel 2 (Homo sapiens), P48051. HEK293-GIRK2 thallium flux, Thallos fluorescence;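 active = among the strongest 0.2% of first-round signals and kept after retests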;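 note: first round at about 10 µM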
# Target sequence (P48051 whole entry, looked up): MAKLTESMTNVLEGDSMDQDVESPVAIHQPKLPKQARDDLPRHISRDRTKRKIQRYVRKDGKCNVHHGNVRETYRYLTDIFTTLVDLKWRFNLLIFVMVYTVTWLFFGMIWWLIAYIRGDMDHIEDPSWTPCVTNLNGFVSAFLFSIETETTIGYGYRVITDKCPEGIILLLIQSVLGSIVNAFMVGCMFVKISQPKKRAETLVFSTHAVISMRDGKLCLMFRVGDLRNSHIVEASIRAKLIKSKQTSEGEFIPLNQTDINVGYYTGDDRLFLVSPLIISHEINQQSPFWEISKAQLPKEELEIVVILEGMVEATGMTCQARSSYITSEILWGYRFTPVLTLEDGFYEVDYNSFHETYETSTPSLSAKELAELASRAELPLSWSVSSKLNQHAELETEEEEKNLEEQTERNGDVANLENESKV
# Calls only; i = inactive. Only part of the results is shown (hit frequency here may not be typical).
SMILES,GIRK2 activ
O=C(NCCC1=CCCCC1)C(=O)NCC1(c2ccc(F)cc2)CC1,i
CCS(=O)(=O)N1CCCc2cc(NS(=O)(=O)c3ccc(OC)cc3)ccc21,i
CC(C)CNC(=O)CSc1nccc(N2CCN(C)CC2)n1,i
CN(CC(=O)NCc1nc(-c2ccccc2)no1)c1nc2c(Cl)cccc2s1,i
Cc1cc(C)n(-c2cc(NC(=O)C(C)n3nc(-c4cccs4)ccc3=O)ncn2)n1 (stereo not given),i
COc1ccc(C(=O)N2CCC(Cn3c(C(F)(F)F)nc4ccccc43)CC2)c(OC)c1,i
O=C(CNC(=O)c1ccc(=O)[nH]c1)NCCOc1ccc(F)cc1,i
CN1CCN(c2cc(NC(=O)CCCc3ccccc3)ncn2)CC1,i
NC(=O)c1ccc(-c2nc(-c3ccc4c(c3)OCCO4)c(-c3ccccn3)[nH]2)cc1,i
CCOc1c2c(c(OCC)c3ccccc13)C(=O)N(c1ccc(CC(=O)NS(=O)(=O)c3ccccc3)cc1)C2,i
CCOCCCN1COc2ccc3c(=O)c(-c4ccccc4)c(C)oc3c2C1,i
O=C1NC(CCC(=O)N2CCN(c3ccccc3Cl)CC2)C(=O)Nc2ccccc21 (stereo not given),i
CCOc1ccc(-c2cc(C(=O)Nc3nc(C)c(C(=O)OCC(C)C)s3)no2)cc1,i
O=C(c1cc2ccccc2oc1=O)N1CCN(C(=O)C2CC2c2ccccc2)CC1 (stereo not given),i
COc1ccc(N2CCCn3c2nc2c3c(=O)n(Cc3ccc(F)cc3)c(=O)n2C)cc1,i
O=C(NCCCOc1cccc2cccnc12)c1ccc(=O)[nH]c1,i
O=C(NCc1cccs1)c1sccc1S(=O)(=O)N1CCN(c2ccc(F)cc2)CC1,i
Cc1nc(C)c(-c2nnc(NC(=O)C(C)(C)Oc3ccc(Cl)cc3)o2)s1,i
Cc1cc(NC(=O)c2cncc(Br)c2)c2cc(Br)ccc2n1,i
O=c1c(S(=O)(=O)N2CCCC2)cccn1Cc1ccccc1Cl,i
Cc1cc(N2C(=O)C(O)=C(C(=O)c3cccs3)C2c2ccc(C(C)C)cc2)no1 (stereo not given),i
COC(=O)c1ccc2c(=O)n(Cc3ccc(C(=O)NCc4ccccc4Cl)cc3)c(=S)[nH]c2c1,i
C=CCn1c(=O)c2ccccc2n(Cc2nc(-c3ccc(OCc4ccccc4)cc3)no2)c1=O,i
CC1CCN(S(=O)(=O)c2ccccc2[N+](=O)[O-])CC1,i
Cc1c(Cl)cccc1NC(=O)C(=O)NCCCN1CCN(c2ccccc2)CC1,i

# (list continues)
SMILES,GIRK2 activ
CS(=O)(=O)N1CCc2nc(NC(=O)c3ccco3)sc2C1,i
Cc1c(C)n(Cc2ccco2)c2ncnc(NCCCC(=O)O)c12,i
Cc1cc(C(=O)N2CC(C(=O)NCc3ccccc3Cl)C2)no1,i
O=C(CCS(=O)(=O)c1ccccc1)N1CCC(Cn2ccnc2)CC1,i
Cc1nc2c(c(=O)n1CC(=O)NCc1ccc(Cl)cc1)CCN(Cc1ccccc1)C2,i
COc1ccc(CCNC(=O)Cn2c(-c3ccccn3)nc3ccccc32)cc1OC,i
O=C(NC1CC1)c1ccc2c(=O)nc3c(-c4ccc(Cl)cc4)n[nH]n3c2c1,i
CCN1N=C(C)Cn2c1nc1c2c(=O)n(C/C=C/c2ccccc2)c(=O)n1C,i
CN(C)S(=O)(=O)c1ccc(C(=O)Nc2cnoc2)cc1,i
Cc1cc(NC(=O)c2cc(Cl)ccc2[N+](=O)[O-])n(-c2nc(-c3ccccc3)cs2)n1,i
COc1ccc(OCC(=O)N2CCC(c3nnc(C(C)C)o3)CC2)cc1,i
CCN(CCO)CCCOc1ccc2c(Nc3cc(CC(=O)Nc4cccc(F)c4)[nH]n3)ncnc2c1,i
O=S1(=O)CCC(CNS(=O)(=O)c2cc(F)cc(F)c2)C1 (stereo not given),i
COc1cccc(CNC(=O)Cn2cccc(S(=O)(=O)N3CCC(C)CC3)c2=O)c1,i
CC(C)Sc1ccccc1NC(=O)c1ccc(-n2cnnn2)cc1,i
COc1ccc(S(=O)(=O)NCCn2ncccc2=O)c(OC)c1,i
CC1CN(S(=O)(=O)c2ccc3ccccc3c2)CCN1S(=O)(=O)c1ccc2ccccc2c1 (stereo not given),i
COc1ccc(S(=O)(=O)N2CCCc3cc(NC(=O)c4ccc(C)cc4)ccc32)cc1,i
COc1ccc(S(=O)(=O)N2CCCCC2CC(=O)NC2CCCCC2)cc1 (stereo not given),i
O=C(NNC(=O)c1cccn(Cc2cccc(Cl)c2)c1=O)Nc1ccccc1,i
CCSc1ccccc1C(=O)N1CCN(Cc2nnnn2-c2ccc(F)cc2)CC1,i
O=S(=O)(Cc1ccc(C(F)(F)F)cc1)N(CCc1cccs1)Cc1ccoc1,i
COc1ccccc1N1CCN(S(=O)(=O)c2cc(C(=O)Nc3ccc(Cl)c(Cl)c3)ccc2F)CC1,i
CNC(=O)C1CCC(Cn2c(=O)c3sccc3n(CC(=O)NCCc3ccccc3)c2=O)CC1 (stereo not given),i
COc1ccc(C(=O)CSc2nnc(C)c3cnn(-c4ccccc4OC)c23)cc1,i

# Next part
SMILES,GIRK2 activ
O=C(Nc1nnc(-c2ccccc2)o1)C1CCN(S(=O)(=O)c2ccc(F)cc2)CC1,i
O=C(Cn1nc2c(c1NC(=O)Cc1cccs1)CSC2)NCCc1ccccc1,i
O=S(=O)(Cc1ccc(C(F)(F)F)cc1)N(Cc1ccoc1)Cc1cccs1,i
O=C(c1ccc(S(=O)(=O)NC2CC2)o1)N1CCCC1,i
COc1ccc(-c2ccc(=O)n(CCNS(=O)(=O)c3ccc(F)c(C(F)(F)F)c3)n2)cc1,i
O=c1c2cc(Cl)ccc2ncn1C1CCN(S(=O)(=O)c2ccc(F)c(F)c2)CC1,i
CCCn1c(=O)c2cc(Cl)ccc2n2c(SCC(=O)Nc3cccc(F)c3)nnc12,i
CCN1C(=O)CCc2cc(NC(=O)c3cccc(OC)c3)ccc21,i
Cc1ccc2[nH]c3c(=O)n(CCC(=O)N4CCN(C(=O)c5ccco5)CC4)cnc3c2c1,i
O=C(Nc1ccc(N2CCCS2(=O)=O)cc1)c1ccc2c(c1)OCO2,i
Cc1ccc(C(=O)OCc2nc3ccccc3s2)cc1,i
CCCOc1ccc(CNC(=O)c2nnn(-c3ccc(Cl)cc3)c2-c2cccnc2)cc1,i
CCS(=O)(=O)N1CCOC(c2cc(Cl)cc(Cl)c2)C1 (stereo not given),i
COc1ccc(NC(=O)CSc2nnc(-c3ccc(OC)c(OC)c3)n2N)c(OC)c1,i
CCCCOC(=O)c1ccc(N/C=C(\C#N)c2nc(C3CC3)cs2)cc1,i
CC(C)(Oc1ccc(CCNC(=O)c2ccc(Cl)cc2)cc1)C(=O)O,i
COc1cc(NC(=O)CCCn2nnc3ccccc3c2=O)cc(OC)c1,i
COc1cccc(C(=O)N2CCN(c3oc(/C=C/c4cccs4)nc3C#N)CC2)c1,i
O=C(CCc1csc(NC(=O)NC2CCCCC2)n1)NCCc1ccc(F)cc1,i
COC(=O)N1CCc2ccccc2C1C(=O)NCC(F)(F)F (stereo not given),i
Cc1cc(=O)[nH]c(-n2nc(-c3cccs3)cc2NC(=O)c2ccc([N+](=O)[O-])o2)n1,i
O=C(c1cnn(-c2ccccc2)n1)N1CCN(Cc2csc(-c3ccccc3)n2)CC1,i
COCCc1nnc(NC(=O)CCCSc2ccc(C)cc2)o1,i
COc1ccc(NC(=O)C(=O)NCCC2CCCCN2S(=O)(=O)c2ccccc2)cc1 (stereo not given),i
COc1ccc(-c2noc(-c3cccn(CC(=O)Nc4ccc(C)c(Cl)c4)c3=O)n2)cc1OC,i

# The closing seven compounds of the section above are carried over, then new ones follow.
SMILES,GIRK2 activ
O=C(CCc1csc(NC(=O)NC2CCCCC2)n1)NCCc1ccc(F)cc1,i
COC(=O)N1CCc2ccccc2C1C(=O)NCC(F)(F)F (stereo not given),i
Cc1cc(=O)[nH]c(-n2nc(-c3cccs3)cc2NC(=O)c2ccc([N+](=O)[O-])o2)n1,i
O=C(c1cnn(-c2ccccc2)n1)N1CCN(Cc2csc(-c3ccccc3)n2)CC1,i
COCCc1nnc(NC(=O)CCCSc2ccc(C)cc2)o1,i
COc1ccc(NC(=O)C(=O)NCCC2CCCCN2S(=O)(=O)c2ccccc2)cc1 (stereo not given),i
COc1ccc(-c2noc(-c3cccn(CC(=O)Nc4ccc(C)c(Cl)c4)c3=O)n2)cc1OC,i
CSc1cccc(NC(=O)c2nnn(-c3ccc(OC(F)(F)F)cc3)n2)c1,i
Cn1cccc1C(CNC(=O)c1ccc(Cl)c(Cl)c1)N1CCOCC1 (stereo not given),i
Cc1cccc(C(=O)Nc2ccc(Cn3cnc(C(=O)Nc4ccccc4)c3)cc2)c1,i
Cc1cc(Cl)cc2sc(N(Cc3ccccn3)C(=O)C3CC3)nc12,i
Cc1ccc(C)c2sc(N(C)CC(=O)N3CCN(C(=O)C4CCCO4)CC3)nc12 (stereo not given),i
COc1cccc(N2CCN(C(=O)CCc3nc4sc5c(c4c(=O)[nH]3)CCCCC5)CC2)c1,i
COc1ccc(/C=C2\Oc3ccc(O)cc3C2=O)cc1OC,i
COc1ccc(-c2coc3c4c(ccc3c2=O)OCN(c2cc(C)ccc2OC)C4)cc1OC,i
COC(=O)Cc1c(C)n(C(=O)c2ccc(Cl)cc2)c2ccc(OC)cc12,i
Cc1ccc(NC(=O)Cn2cnc3ccccc32)cc1C,i
CC(=O)Cn1c(=O)c2c(nc3n2CCCN3c2cccc(C)c2)n(C)c1=O,i
Cc1csc(C(=O)Nc2ccc(N3CCCN(C(=O)C4CC4)CC3)cc2)c1,i
Cc1nn(C(C)(C)C)c(OC(=O)c2c(F)cccc2F)c1S(=O)(=O)c1ccccc1,i
CC(C)(C)c1ccc(OCC(=O)N2CCC3(CC2)OCCS3)cc1,i
COc1cc(NC(=O)c2ccc3nsnc3c2)c2ncccc2c1,i
CC1=CC(=C2C(=O)NC(=O)NC2=O)C=C(C)N1c1ccc(C)cc1C,i
CC(C)S(=O)(=O)c1ccc(CC(=O)NCCc2nc(-c3cccs3)cn2C)cc1,i
COc1ccccc1OCC(=O)N1CCN(c2ncnc3c2nnn3-c2ccc(Cl)cc2)CC1,i
Cc1c(CCC(=O)NCc2cccnc2)c(=O)n2c([nH]c3ccccc32)c1C#N,i
COc1cc(C)c(C)cc1S(=O)(=O)NCC(O)c1ccoc1 (stereo not given),i
Cc1cc(C)nc(NC(=O)c2ccc(S(=O)(=O)N3CCCCCC3)cc2)n1,i
CC(C)c1ccc(CNC(=O)C2CCN(c3cc(Oc4ccccc4)ncn3)CC2)cc1,i
COc1ccc(-c2noc(-c3c(C)cc(C)n(CC(=O)Nc4cc(F)ccc4C)c3=O)n2)cc1,i
COc1cc(Cl)c(C)cc1NC(=O)COc1cc(C)nc(N2CCCC2)n1,i
COc1ccc(Cl)cc1S(=O)(=O)NCCCN1CCN(c2ccccc2)CC1,i

# Laid out differently: entries from further up.
GIRK2 activ	molecule
i	CCOc1c2c(c(OCC)c3ccccc13)C(=O)N(c1ccc(CC(=O)NS(=O)(=O)c3ccccc3)cc1)C2
i	COc1cc(NC(=O)CCCn2nnc3ccccc3c2=O)cc(OC)c1
i	CCOCCCN1COc2ccc3c(=O)c(-c4ccccc4)c(C)oc3c2C1
i	CC(C)Sc1ccccc1NC(=O)c1ccc(-n2cnnn2)cc1

# (continued)
SMILES,GIRK2 activ
COC(=O)c1c(NCc2ccccc2C(F)(F)F)c2ccccc2[nH]c1=O,i
O=C(NCCC1=CCCCC1)c1cc(-c2ccc(F)cc2)c[nH]1,i
Cc1nnc(NC(=O)Cc2csc(Nc3ccc(OC(F)(F)F)cc3)n2)s1,i
O=C(CN1CCN(Cc2nc(-c3ccc(F)cc3)cs2)CC1)NCc1ccc(F)cc1,i
COc1ccc(-c2cc3nn(CC(=O)NCc4ccccc4Cl)c(=O)n3c(C)n2)cc1,i
O=C(NCCOc1ccc(F)cc1)c1cc(-c2ccco2)[nH]n1,i
O=C(/C=C/c1ccccc1)NCCNc1cc(-n2cccc2)ncn1,i
O=c1[nH]cc(S(=O)(=O)N2CCc3ccccc3C2)c(=O)[nH]1,i
CCCCC/C=C\C/C=C\C/C=C\C/C=C\CCCC(=O)C(F)(F)F,i
COc1nn(C)cc1C(=O)N1CCN(Cc2c(C)noc2C)CC1,i
Cc1nc(CSc2nc3sc(C)c(C)c3c(=O)n2-c2ccccc2)cs1,i
COc1ccccc1NC(=O)c1cc(S(=O)(=O)N2CCCCC2)ccc1F,i
CCOC(=O)Cn1c(=O)c2c(nc3n2CC(C)CN3c2cccc(C)c2)n(C)c1=O (stereo not given),i
CC(NC(=O)CCc1nc2sc3c(c2c(=O)[nH]1)CCCCC3)c1ccc2c(c1)OCCO2 (stereo not given),i
Cc1cc(C)n(-c2nc3c(c(=O)n(CC(N)=O)c(=O)n3C)n2Cc2ccc(Cl)cc2)n1,i
CCOc1cc(NC(=O)c2cc(-c3cccs3)on2)ncn1,i
COc1ccc(/C=C2\Oc3cc(OCC(=O)O)ccc3C2=O)cc1,i
COCCCn1c(C(=O)N2CC(C)OC(C)C2)cc2c(=O)n3ccccc3nc21 (stereo not given),i
CCn1c(-c2nc(C(=O)N3CCOCC3)cs2)cc2ccccc21,i
CC(Oc1ccccc1)C(=O)NCC1(c2ccccc2)CCOCC1 (stereo not given),i
O=S(=O)(Nc1cnc(Oc2ccccc2F)nc1)c1ccc2c(c1)OCCO2,i
O=C(c1cccnc1)N1CCC(CNS(=O)(=O)c2ccc(Cl)s2)CC1,i
CC(C)(C)c1cc(N2CCN(CC#N)CC2)n2ncc(-c3ccccc3Cl)c2n1,i
CCOc1ccc(-n2c(C)cn3c4c(=O)n(CCc5ccccc5)c(=O)n(C)c4nc23)cc1,i
COc1ccccc1CNC(=O)Cn1nc2c(SCc3ccc(Cl)cc3)nccn2c1=O,i
Cc1nc(C)c(CNC(=O)NCCOc2ccccc2)s1,i
CCCCN(C1CCS(=O)(=O)C1)S(=O)(=O)c1ccc(OC)c(OC)c1 (stereo not given),i
COc1ccc(NC(=O)Cn2ccn3nc(-c4ccc(OC)c(OC)c4)cc3c2=O)cc1,i

# Screens as filed in PubChem.
